Compound activity (PubChem BioAssay)
Ecoli growth – E. coli growth inhibition, primary screen, OD600. Escherichia coli growth, 23 h; stronger effect = lower value. 0.21% of 330,000 active. OD600 absorbance (no concentration beside the values);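 active = OD600 absorbance below the run mean of sample wells minus 3.6 SD, in any replicate, cut at about 0.56 in these data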;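 also: stock transfer was 300 nL into about 60 µL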
Ecoli rRNA inh – reduced GFP signal of wild-type E. coli, primary screen, bacterial rRNA inhibitor project, GFP/RFP fluorescence, OD600, single point; GFP signal change (wild-type ribosome), % (test concentration not listed); 1.6% of 350,000 active; E. coli WT GFP vs humanized-ribosome RFP mutants, 24 h; stronger effect = lower value; DMSO median 0, no signal -100;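 active = significant combined selectivity score with lowered wild-type GFP, culture density cut under 30%, mutant RFP and density less affected; inactive = any of these conditions unmet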; also: one replicate is shown; some compounds called inactive have numbers as strong as hits
HNF4A DNA FP – change in binding of human HNF4A to DNA, primary screen, biochemical, fluorescence polarization, FITC-DNA; 1 h; 0.3% of 360,000 active; activity change, % at 10 µM; in the data active = activity change above about 30%, passing the limit was not always enough;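 also: controls were the assay level and a saturating level of protein; the project sought stronger binding though the title names inhibitors; some compounds called inactive have numbers as strong as hits; positive values seem to mean higher polarization but the record does not say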
Target sequence (P41235 whole entry, looked up): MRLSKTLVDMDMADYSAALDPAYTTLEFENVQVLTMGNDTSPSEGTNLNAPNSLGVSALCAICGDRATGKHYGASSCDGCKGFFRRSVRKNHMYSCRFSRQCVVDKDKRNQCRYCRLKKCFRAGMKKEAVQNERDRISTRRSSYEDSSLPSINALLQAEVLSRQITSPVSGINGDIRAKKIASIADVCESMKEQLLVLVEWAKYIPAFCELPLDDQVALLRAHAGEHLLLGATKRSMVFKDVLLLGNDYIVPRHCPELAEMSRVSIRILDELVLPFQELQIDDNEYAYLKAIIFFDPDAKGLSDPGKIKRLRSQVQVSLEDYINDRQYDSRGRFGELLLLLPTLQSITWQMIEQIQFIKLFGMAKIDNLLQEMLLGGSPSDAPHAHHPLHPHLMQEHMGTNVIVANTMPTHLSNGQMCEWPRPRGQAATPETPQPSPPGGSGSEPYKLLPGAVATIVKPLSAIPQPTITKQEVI
UCH37 inh – inhibitors of human UCH37 deubiquitinase, primary screen, biochemical, Ub-AMC cleavage, fluorescence | Ubiquitin carboxyl-terminal hydrolase isozyme L5 (Homo sapiens), Q9Y5K5 | purified proteasome/UCH37 | inhibition, % (no concentration beside the values) | 0.33% of 330,000 active | AID 588478, 2011;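 active = mean of two replicates above 20%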;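 also: 0% = compound-free wells with enzyme and 100% = wells lacking proteasome; stock transfer was 100 nL into about 20 µL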
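Material: human UCH37 enzyme supplied as purified proteasome complex. Measure: % inhibition of Ub-AMC cleavage fluorescence. Medium: pH 7.4 Tris-HCl (50 mM) with ovalbumin, ATP-MgCl2, DTT. Times: 30 min preincubation with enzyme, 25 min cleavage at room temperature. Detection: AMC fluorescence intensity at 355/460 nm.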
ALR H2O2 inh – inhibitors of human ALR sulfhydryl oxidase, primary screen, biochemical, H2O2 detection, HRP-luminol luminescence, single point | purified ALR, DTT oxidation | inhibition, % (test concentration not listed) | 3.8% of 290,000 active;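 active = mean and each replicate at 75% or more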;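 also: stock transfer was 7.5 nL into about 7.5 µL; 0% = neutral wells and 100% = wells with inactivated enzyme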
Target sequence (P55789 whole entry, looked up): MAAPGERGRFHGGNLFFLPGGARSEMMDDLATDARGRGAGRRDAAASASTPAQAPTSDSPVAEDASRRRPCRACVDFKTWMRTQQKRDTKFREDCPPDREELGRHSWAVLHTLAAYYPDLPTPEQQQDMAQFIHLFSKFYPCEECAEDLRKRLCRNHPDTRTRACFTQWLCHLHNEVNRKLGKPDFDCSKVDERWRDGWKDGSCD
Beta2AR agonist – beta2AR agonists driving receptor internalization, primary screen, cell-based, FAP fluorogen, flow cytometry; 0.43% of 340,000 active; Beta-2 adrenergic receptor (Homo sapiens), P07550; AID 504454, 2011; Am2.2-beta2AR cells; reference of the scale not given here; response, % (concentration not given with the values);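 active = response above a set limit, near 3 SD of response in nonfluorescent compounds, cut at about 42% in these data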;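 also: stock transfer was 100 nL into about 11 µL; a reference agonist was the positive control; negative values mostly stem from fluorescent compounds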
FGF22 binding – binders of human FGF22 protein, primary screen, FGF22 synaptogenesis inhibitor project, biophysical, thermal shift, single point. calls only at 9.99 µM. recombinant FGF22 thermal shift, SYPRO orange fluorescence; percent of sucrose octasulfate shift, DMSO zero. Fibroblast growth factor 22 (Homo sapiens), Q9HCT0. 1.5% of 340,000 active. AID 651658, 2012;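 active = melting point raised past a set limit in the mean and every replicate; three in four hits are not shown here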
Target sequence (Q9HCT0 whole entry, looked up): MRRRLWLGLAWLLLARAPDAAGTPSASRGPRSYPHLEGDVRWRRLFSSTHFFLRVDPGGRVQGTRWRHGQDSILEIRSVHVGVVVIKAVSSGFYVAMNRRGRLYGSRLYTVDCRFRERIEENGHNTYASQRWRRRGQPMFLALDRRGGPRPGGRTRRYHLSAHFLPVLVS
Ecoli rRNA inh OD600 – second read-out of Ecoli rRNA inh, no call of its own (marks repeat the call); OD600 change, %; measured here: OD600 growth;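 optical density of the mix in the first replicate; 0 = DMSO median and -100 = no signal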
Ecoli rRNA inh RFP – second read-out of Ecoli rRNA inh, no call of its own (marks repeat the call); RFP signal change, %; measured here: RFP humanized mutant strains;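 first replicate; 0 = DMSO median and -100 = no signal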
Active calls of the source: *; i = inactive; . = not tested or not shown; & = joins results of further samples; ! = a repeat was not active. Some of the compounds tested; count on the stated rates, not on these rows.

SMILES	Ecoli growth	Ecoli rRNA inh	Ecoli rRNA inh OD600	Ecoli rRNA inh RFP	HNF4A DNA FP	UCH37 inh	ALR H2O2 inh	Beta2AR agonist	FGF22 binding
Cc1ccc(C)c(NC(=O)C(OC(=O)c2cc[n+]([O-])cc2)c2ccccc2)c1 (stereo unspecified)	0.65	3	-3	0.3	0.4	-0.1	.	3	i
COCC(C)NCC(=O)NC(C)CCc1ccccc1 (stereo unspecified)	0.72	.	.	.	3.5	3.0	4	-2	.
CCOc1ccc(CNc2ncnc(N)n2)cc1	0.64	.	.	.	-3.0	2.5	-6	2	.
O=C(CC(=O)N/N=C/c1ccccc1O)NCc1cccnc1	.	-5	-4	-3.3	2.9	.	20	-5	i
Cc1cc(C(=O)CN2C(=O)NC(C)(c3cccc(Br)c3)C2=O)c(C)n1Cc1ccco1 (stereo unspecified)	0.75	.	.	.	1.7	2.9	-1	7	.
Fc1ccc(NC(=S)NCc2cccnc2)cc1	0.73	8	5	-1.0	0.9	1.8	4	-8	i
O=C1NC(=Nc2cccnc2)S/C1=C\c1cccc(F)c1	0.7	4	5	0.5	17	3.2	.	7	i
Cc1oc2c(C)c3oc(=O)c(CC(=O)N[C@@H](CC(C)C)C(=O)N[C@@H](Cc4ccccc4)C(=O)O)c(C)c3cc2c1C	0.81	-9	-1	0.6	-15	-56	40	-2	i
O=C(NCCc1ccc(Cl)cc1)c1cc(S(=O)(=O)N2CCCCC2)c[nH]1	0.71	.	.	.	1.8	0.7	2	7	.
CN1CCN(C(=O)C2Cc3c(-c4ccc5c(c4)OCO5)ccnc3O2)CC1 (stereo unspecified)	.	-4	0	0.0	0.7	.	.	.	i
O=C(CN(Cc1ccccc1)C(=O)CNS(=O)(=O)c1ccc(Cl)cc1)NCC1CCCO1 (stereo unspecified)	0.67	13	17	0.5	0.0	5.0	4	-2	i
Cc1ccc(CNC(=O)c2cncc(Br)c2)cc1	0.67	8	4	-0.9	-2.1	2.0	-1	3	i
CC1(C)CC(=O)C(CCCN2C(=O)c3ccccc3C2=O)C(=O)C1	0.69	.	.	.	-3.1	4.1	-5	-3	.
Cc1ccc(-c2[nH]ncc2CNCCc2cnn(-c3ccccc3)c2)cc1C	0.63	-4	-29	11	3.1	2.3	.	35	i
COc1ccc(S(=O)(=O)N2CCCC(C(=O)NCc3ccccn3)C2)cc1Cl (stereo unspecified)	0.71	6	4	0.9	3.8	1.7	45	-4	i
Cc1ccc(C)c(S(=O)(=O)NCc2ccncc2)c1	0.72	.	.	.	0.3	1.0	3	-7	.
CC(OC(=O)c1nc(Cl)ccc1Cl)C(=O)Nc1ccccc1F (stereo unspecified)	0.7	6	5	-0.9	-0.7	2.7	0	5	i
CCCCC(=O)Nc1nn(CC(C)C)c2nc3ccccc3cc12	0.69	.	.	.	-0.4	-76	9	3	.
CC(=O)Nc1ccc(S(=O)(=O)Nc2nc3ccccc3nc2Nc2ccc(O)c(C(=O)O)c2)cc1	0.7	13	7	-1.9	27	12	99*	8	.
COc1ccc(-n2c(SCC(=O)N(C)c3ccccc3)nc3c([nH]c4ccccc43)c2=O)cc1OC	0.72	2	-8	0.9	-2.3	2.4	3	2	i
CC(C)c1cc(C(=O)Nc2sc3c(c2C#N)CCC3)no1	0.71	-13	-4	0.7	0.8	-3.1	29	-5	i
COc1cc(C(=O)N2CCC3(CC2)NCCc2[nH]cnc23)cc(OC)c1OC	0.67	12	16	3.0	0.3	0.8	-6	7	i
Cc1cccn2c(=O)c3cc(C(=O)NC4CCCCC4)c(=N)n(CCN4CCOCC4)c3nc12	0.69	-1	3	5.2	-2.0	-81	3	-19	i
Cc1ccc(NC(=O)c2scc3c2CCCC3)cc1	0.64	5	13	-3.1	-0.5	2.3	1	-7	i
Cc1ccc(C(=O)c2ccccc2C(=O)OCC(=O)N2C(C)CCCC2C)cc1 (stereo unspecified)	0.71	-21	-25	-2.4	-0.5	3.5	26	4	i
CN(Cc1ccc(F)cc1)Cc1nc(-c2cnccn2)no1	0.68	13	3	-0.9	1.2	-0.6	14	-7	i
Cc1ccc(CNC(=O)C2CCC(=O)N(CCc3cccc(F)c3)C2)s1 (stereo unspecified)	0.67	3	3	2.7	0.5	2.0	.	0	i
Cc1nnc2sc(-c3cccc(F)c3)nn2c1=O	0.65	12	22	-1.0	-0.2	6.1	.	-5	i
CC(C)C(=O)Nc1ccc(N2CCCC2)c(Cl)c1	0.68	-6	6	0.7	1.3	-1.2	7	-9	i
O=C(CCc1ccccc1)NCC1(c2ccccc2)CCCC1	0.63	-15	-47	-7.1	0.9	3.6	0	-4	i
COc1cc(C2Nc3ccc4ncccc4c3C3=C2C(=O)CCC3)ccc1O (stereo unspecified)	0.72	.	.	.	-1.7	1.5	-10	-14	.
CC1CCC(C(C)C)C(OC(=O)Cn2c(-c3ccc(Cl)cc3)[n+](C)c3ccccc32)C1 (stereo unspecified)	0.66	-58	-78	-36	-0.8	6.5	-2	19	i
Cn1c2ccccc2c(=O)c2c(=O)n(Cc3ccco3)c(COc3ccccc3)nc21	0.67	-13	-5	7.9	-31	3.8	97*	18	i
NC(CCc1ccccc1)c1csc(Nc2ccc(C(=O)NCCO)cc2)n1 (stereo unspecified)	.	9	2	3.3	7.2	.	.	.	i
COc1ccc(-c2nnc(SCCC(=O)O)n2-c2ccccc2)cc1	0.66	.	.	.	1.2	3.1	1	5	.
CCn1c(SCC(=O)c2ccccc2)nnc1-c1cc2cc(Br)ccc2o1	0.73	.	.	.	0.1	-9.3	2	1	.
COc1ccc(NC(=O)c2ccc(C)cc2Cl)c([N+](=O)[O-])c1	0.76	.	.	.	-5.0	1.1	-2	-14	.
CCOC(=O)C1=C(O)C(=O)C(C(=O)OCC)C1 (stereo unspecified)	.	12	12	2.4	-0.8	.	.	-5	i
COc1ccc(C(=O)Nc2nc(OCC(F)(F)F)cnc2/C=C\c2ccccc2)c(OC)c1	.	7	20	0.5	-2.3	.	.	.	i
O=C(CSCc1ccc(Br)cc1)N1CCOCC1	0.7	.	.	.	2.3	-2.2	-2	2	.
CC(=O)Nc1sc2c(c1C(c1cccc(F)c1)N1CCN(CCO)CC1)CCCC2 (stereo unspecified)	0.8	2	2	0.7	1.5	2.9	56	-11	.
O=C(NCc1ccccc1C(F)(F)F)C1CC(c2ccccc2C(F)(F)F)=NO1 (stereo unspecified)	0.68	.	.	.	-1.4	0.3	2	2	.
O=C(NCCNC(=O)c1ccc(Br)o1)c1ccc(Br)o1	0.72	.	.	.	-1.5	-2.1	-10	-1	.
CCCCCC1CCC(c2ccc(C(N)=O)cc2)CC1 (stereo unspecified)	0.73	.	.	.	0.3	3.6	-8	-6	.
CCc1ccccc1NC(=S)N1CCC(C(=O)c2ccc(F)cc2)CC1	0.71	-10	-3	-3.8	0.1	4.1	3	-5	i
O=c1cc(CSc2nnnn2-c2ccccc2)nc(Nc2ccc(F)cc2)[nH]1	0.67	.	.	.	-4.1	0.7	.	-5	.
CCN1C(=O)[C@@H]2[C@@H](c3ccc(-c4ccc(Cl)c(Cl)c4)cc3)N3CCC[C@@]3(C(=O)OC)[C@@H]2C1=O	0.75	7	4	11	32	1.9	-3	12	i
CCCc1cc(C(=O)NC2CCCCC2)no1	0.67	1	10	-0.1	0.0	0.4	.	-19	i
Cc1c(Br)c(C(F)(F)F)nn1CC(=O)NCC1CCCO1 (stereo unspecified)	0.66	9	4	-0.7	2.6	2.0	-5	2	i
COc1ccc(C(=O)NCCn2cc(SCC(N)=O)c3ccccc32)cc1	0.65	-2	-8	-8.5	4.2	-0.6	7	-2	i
CC(=O)Nc1ccc(OC(=O)c2cc([N+](=O)[O-])ccc2Cl)cc1	0.66	2	11	-9.7	1.9	2.1	-24	0	i
C#CC(C)(CC)NC(=O)c1cc(OC)c(OC)c(OC)c1 (stereo unspecified)	0.7	.	.	.	2.1	0.9	-6	-4	.
CCOC(=O)c1cccc(N/C=C/C(=O)c2ccc(OC)c(OC)c2)c1	0.75	.	.	.	1.4	-6.4	-2	3	.
CN(C(=O)COC(=O)c1ccccc1NCc1ccco1)c1c(N)n(Cc2ccccc2)c(=O)[nH]c1=O	0.7	3	2	-1.1	-2.1	-234	0	0	i
Cc1ccc(NC(=O)CSc2nn3c(=O)c(C)nnc3s2)cc1Cl	0.66	0	0	-2.0	3.5	8.9	99*	-6	i
CC(C)N(Cc1ccccc1)C(=O)/C=C/c1ccccc1[N+](=O)[O-]	0.66	-15	-22	1.3	5.9	6.5	0	-9	i
NC1=C(Br)C(=O)c2ncccc2C1=O	.	-38	-68	-7.8	8.9	.	.	5	i
Cc1ccccc1C(=O)NN1CC(C(=O)OCc2ccc(Cl)c(Cl)c2)CC1=O (stereo unspecified)	0.69	-2	0	0.5	0.3	1.7	-2	13	i
CCc1nnc(NC(=O)c2ccc(Cl)c(S(=O)(=O)N3CCc4ccccc4C3)c2)s1	0.7	4	8	-5.3	2.4	-3.5	4	-2	i
O=c1[nH][nH]c(-c2ccccc2)c1C=Nc1ccccc1	0.71	.	.	.	-0.1	11	1	-9	.

In the list so far, six have an aryl thioether with sulfur outside any ring.
SMILES	Ecoli growth	Ecoli rRNA inh	Ecoli rRNA inh OD600	Ecoli rRNA inh RFP	HNF4A DNA FP	UCH37 inh	ALR H2O2 inh	Beta2AR agonist	FGF22 binding
COc1ccc(-n2c(SCC(=O)N(C)c3ccccc3)nc3c([nH]c4ccccc43)c2=O)cc1OC	0.72	2	-8	0.9	-2.3	2.4	3	2	i
COc1ccc(-c2nnc(SCCC(=O)O)n2-c2ccccc2)cc1	0.66	.	.	.	1.2	3.1	1	5	.
CCn1c(SCC(=O)c2ccccc2)nnc1-c1cc2cc(Br)ccc2o1	0.73	.	.	.	0.1	-9.3	2	1	.
O=c1cc(CSc2nnnn2-c2ccccc2)nc(Nc2ccc(F)cc2)[nH]1	0.67	.	.	.	-4.1	0.7	.	-5	.
COc1ccc(C(=O)NCCn2cc(SCC(N)=O)c3ccccc32)cc1	0.65	-2	-8	-8.5	4.2	-0.6	7	-2	i
Cc1ccc(NC(=O)CSc2nn3c(=O)c(C)nnc3s2)cc1Cl	0.66	0	0	-2.0	3.5	8.9	99*	-6	i

The listing continues:
SMILES	Ecoli growth	Ecoli rRNA inh	Ecoli rRNA inh OD600	Ecoli rRNA inh RFP	HNF4A DNA FP	UCH37 inh	ALR H2O2 inh	Beta2AR agonist	FGF22 binding
C=CCN(c1ccccc1)S(=O)(=O)c1cccc(C(=O)Nc2ccc(N3CCOCC3)cc2)c1	0.7	-15	-11	2.7	-3.4	1.5	.	29	i
CS/C(=N\S(=O)(=O)c1cccs1)Nc1ccc(Br)cc1F	0.63&0.69	-23	-38	-4.7	-1.6&0.4	0.3&2.3	4	59*!	i
COC(=O)C1CCN(c2ccc([N+](=O)[O-])cc2[N+](=O)[O-])CC1	0.69	-15	-5	-0.1	-2.0	3.6	2	-9	i
COc1ccc(C(=O)COC(=O)c2ccc3c(c2)OCCO3)c(OC)c1	0.68	-2	-12	-0.5	-0.6	3.0	.	-1	i
